Bioassay records from PubChem.
VDR inh: Inhibitors of the vitamin D receptor (VDR): qHTS. Vitamin D3 receptor (Homo sapiens), P11473. VDR-SRC2-3 peptide fluorescence polarization, 2 h. Potency, µM, without a hit: max response, negative = inhibition, hits mostly inhibitors. actives 0.93% (n = 400,000); active means well fitted inhibition curve with a large enough effect; inconclusive means small, poorly fitted or top-dose-only effect, or another doubt; inactive means no such curve, though single readings can be large or run the other way; further: series mostly up to about 120 µM
Target sequence (P11473 whole entry, looked up): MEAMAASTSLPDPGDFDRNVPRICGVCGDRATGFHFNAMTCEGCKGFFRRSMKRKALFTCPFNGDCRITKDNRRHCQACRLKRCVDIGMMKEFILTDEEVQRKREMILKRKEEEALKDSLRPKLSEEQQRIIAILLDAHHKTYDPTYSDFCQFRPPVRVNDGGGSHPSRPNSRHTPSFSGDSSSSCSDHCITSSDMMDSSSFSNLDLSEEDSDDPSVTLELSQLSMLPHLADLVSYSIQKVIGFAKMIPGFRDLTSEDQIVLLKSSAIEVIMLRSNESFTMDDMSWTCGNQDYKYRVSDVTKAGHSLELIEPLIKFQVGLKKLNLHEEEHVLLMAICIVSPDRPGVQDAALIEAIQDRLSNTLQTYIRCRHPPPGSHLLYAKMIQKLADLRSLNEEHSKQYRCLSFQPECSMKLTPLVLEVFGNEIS
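Signal is fluorescence polarization, reporting how far test compounds block the interaction of VDR with the SRC2-3 coregulator peptide after a 2 h room-temperature incubation.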
* hit, by the source's call; ? = inconclusive; & = joins results of further samples. On the % scale 0 is the no-effect control and ±100 the full control effect; potency means the concentration at half of the fitted maximal effect. These rows are one share of the data, so the mix of outcomes need not match the whole.

Sample of the layout, two compounds:
VDR inh	SMILES
-7%	COCC(C)NC(=O)CSc1nc2cc(S(=O)(=O)N3CCCCC3)ccc2o1 (stereo not drawn)
12%	Cc1nn(C(C)(C)C)c(OC(=O)c2cccs2)c1Sc1ccccc1

The whole of this part, previewed entries included:
VDR inh	SMILES
-7%	COCC(C)NC(=O)CSc1nc2cc(S(=O)(=O)N3CCCCC3)ccc2o1 (stereo not drawn)
12%	Cc1nn(C(C)(C)C)c(OC(=O)c2cccs2)c1Sc1ccccc1
-8%	N#Cc1ccccc1S(=O)(=O)N1CCN(CC(=O)NC(=O)NC2CCCCC2)CC1
-12%	Cc1ccnc(NC(=O)c2cc3ccccc3o2)c1
-9%	CC(C)C[C@H](NC(=O)Nc1cccc(Br)c1)C(=O)O
-8%	C=CC[C@@H](CC(=O)N[C@@H](CO)Cc1ccccc1)C(=O)NC[C@H](OC(=O)[C@@H](CC=C)Cc1ccc(F)cc1)c1ccccc1
-5%	CCn1c(=O)n(CC)c2cc(N3CCCCC3)c(NC(=O)Nc3cc(Cl)ccc3OC)cc21
6%	CC(=O)c1ccc(N2CCN(C(=O)c3cccs3)CC2)c(F)c1
10%	Cc1cccc(N2CCN(C(=O)CCCn3c(=S)[nH]c4cc5c(cc4c3=O)OCO5)CC2)c1C
3%	CCC(C(=O)NCCCN(CC)CC)n1ncn2c(cc3occc32)c1=O (stereo not drawn)

Rewritten in markdown: entries from further up
| canonical_smiles | VDR inh |
| --- | --- |
| C=CC[C@@H](CC(=O)N[C@@H](CO)Cc1ccccc1)C(=O)NC[C@H](OC(=O)[C@@H](CC=C)Cc1ccc(F)cc1)c1ccccc1 | -8% |
| Cc1cccc(N2CCN(C(=O)CCCn3c(=S)[nH]c4cc5c(cc4c3=O)OCO5)CC2)c1C | 10% |
| N#Cc1ccccc1S(=O)(=O)N1CCN(CC(=O)NC(=O)NC2CCCCC2)CC1 | -8% |
| COCC(C)NC(=O)CSc1nc2cc(S(=O)(=O)N3CCCCC3)ccc2o1 (stereo not drawn) | -7% |
| CCn1c(=O)n(CC)c2cc(N3CCCCC3)c(NC(=O)Nc3cc(Cl)ccc3OC)cc21 | -5% |
| Cc1nn(C(C)(C)C)c(OC(=O)c2cccs2)c1Sc1ccccc1 | 12% |

Next records.
VDR inh	SMILES
9%	Cc1ccccc1-n1c(=O)c2c(n3cnnc13)-c1ccccc1CC21CCCCC1
3%	CC(C)NC(=O)N(Cc1ccccc1)Cc1cccs1
3%	O=C(c1cccc(F)c1)N1CCCC(C(=O)N2CCCCC2)C1 (stereo not drawn)
-1%	CCCCCn1c(=O)[nH]c2cc(C(=O)NCCN3C(C)CCCC3C)ccc2c1=O (stereo not drawn)
2%	CCN1CCCC1CN(Cc1cc2cc(OC)ccc2[nH]c1=O)C(=O)NCc1ccccc1 (stereo not drawn)
-13%	O=C(NCCc1ccccc1)c1cccc(Br)c1
-16%	O=C(Nc1cccc(Cl)c1)Nc1csc([N+](=O)[O-])c1
23%	Cc1ccc(S(=O)(=O)Nc2ccc3c(c2)nc(C)n3C)cc1
3%	O=C(NN1C(=O)NC2(CCCCC2)C1=O)c1ccc(-c2ccccc2Cl)o1
56µM*	O=C(/C=C/c1cccc(O)c1)c1cccnc1
-3%	COc1cc(C(=O)NCCc2sc(-c3ccc(C)cc3)nc2C)cc(OC)c1OC
-7%	CC(C)(CNC(=O)c1ccc(S(=O)(=O)N2CCCC2)cc1)N1CCOCC1
6%	COc1ccc(C2C3=C(Nc4ncnn42)c2ccccc2CCC3)cc1 (stereo not drawn)
-3%	O=C(Nc1ccccn1)c1ccc2c(c1)OCO2
-9%	Cc1cc(NCc2ccccn2)nc2ccccc12
-4%	C=CCOC(=O)C(C#N)c1nc2ccccc2nc1N1CCN(c2ccccc2OCC)CC1 (stereo not drawn)
-25%	CN1C(N)=NC(=O)/C1=C/c1ccc(F)cc1
1%	CCN(C(=O)COC(=O)c1cc([N+](=O)[O-])ccc1N1CCOCC1)C1CCS(=O)(=O)C1 (stereo not drawn)
-20%	COC(=O)c1oc2c(c1C)C(=O)CCC2
2%	CC1CCCN(C(=S)NCCc2ccccc2)C1 (stereo not drawn)
-1%	C1CCC(NC2=NCCC2)CC1
-8%	Cc1ccc(-n2ncc3c(NNC(=O)c4cccs4)ncnc32)cc1
9%	CC(C)c1nc(SCC(=O)N2CC(=O)Nc3ccccc32)c2ccccc2n1
-13%	C=C(C(=O)O)[C@@H]1CC[C@@]2(C)CCC[C@](C)(O)[C@@H]2C1
4%	CSc1ccc(CN2C(=O)NC3(CCCCC3)C2=O)cc1
-15%	COc1ccc(C(=O)Nc2cc3c4c(c2)C(C)C(=O)N4CCC3)cc1OC (stereo not drawn)
13%	CCOC(=O)C1CCN(C(=O)c2cc3c(=O)n4ccccc4nc3n2C)CC1
-2%	COc1ccc([N+](=O)[O-])cc1N(CC(O)CN1CCCCC1)S(=O)(=O)c1ccc(C)cc1 (stereo not drawn)
16%	C=CCN(C(=O)c1ccccc1)C1CCS(=O)(=O)C1 (stereo not drawn)
4%	CN(Cc1ccccc1)S(=O)(=O)c1ccc2[nH]c(=O)oc2c1
13%	Cc1ccnc2nc(C(=O)OCC(=O)c3ccc(Cl)cc3)nn12
-18%	N#Cc1ccccc1NC(=O)Nc1ccc(Cl)cc1
-8%	Cc1ncc([N+](=O)[O-])n1CCOC(=O)NC(NCc1ccccc1Cl)C(Cl)(Cl)Cl (stereo not drawn)
-11%	COc1cccc(OCC(O)CN2CCN(C(c3ccccc3)c3ccccc3)CC2)c1 (stereo not drawn)
-18%	O=C(c1cccs1)c1coc2ccc(O)c(CN3CCOCC3)c12
9%	COc1cccc(CNC(=O)C(C)n2ncn3cccc3c2=O)c1OC (stereo not drawn)
7%	COc1ccc(C(=O)CSc2nc(C)cc(C)c2C(=O)Nc2ccccc2C)cc1
2%	COc1cccc(OCc2nnc3n2N=C(c2ccccc2)C(CC(=O)O)S3)c1 (stereo not drawn)
-7%	CC1CCN(CC(=O)N2CCN(c3ccccc3)CC2)CC1
-11%	CCN1CCCC1CNC(=O)C(=O)NC1CC1 (stereo not drawn)
8%	COc1ccc([C@@H]2CC=C(C(=O)O)[C@H](c3ccccc3)N2S(=O)(=O)c2ccccc2C)cc1
-9%	COc1cc(NC(=O)C2CCN(S(=O)(=O)c3ccc4c(c3)CC(C)N4C(C)=O)CC2)cc(OC)c1OC (stereo not drawn)
1%	CN(Cc1ccccc1)c1nc2c(c(=O)[nH]c(=O)n2C)n1CCCSc1ncccn1
-4%	CSCC[C@H](NC(=O)OC(C)(C)C)c1nnc(SCc2ccccc2)o1
-9%	O=C(c1cccc(S(=O)(=O)N2CCc3ccccc3C2)c1)N1CCN(c2ccccc2)CC1
-11%	COc1ccc(C2=CSC3=NCCN23)cc1[N+](=O)[O-]
2%	O=C(/C=C/c1ccc(Cl)cc1)N1CCN(c2ccccn2)CC1
-6%	CC(C)(C)NCC(O)COc1c(F)cc(Br)cc1F (stereo not drawn)
5%	CCOc1ccc(NC(=O)CSc2nc(-c3cccs3)cc(C(F)(F)F)n2)c([N+](=O)[O-])c1
-16%	CC(=C1C(=O)c2ccccc2C1=O)N1CCc2ccccc2C1

(cont.)
VDR inh	SMILES
-4%	CN=c1scc(-c2ccc(F)cc2)n1/N=C/c1ccc(O)c(O)c1
-12%	Cn1cnnc1SCC(=O)c1cccc([N+](=O)[O-])c1
-9%	O=C(CN1CCC(NC(=O)Nc2ccc(F)cc2)CC1)Nc1ccccc1[N+](=O)[O-]
11%	COc1ccc(S(=O)(=O)CC(=O)Nc2ccccc2Cl)cc1
7%	COC(=O)c1cc(OC)c(OC)cc1NC(=O)CSc1ccc(C)cc1
14%	Cc1nc(SCc2ccc([N+](=O)[O-])cc2)n[nH]1
5%	Cc1cccc(C(=O)N[C@H](C(=O)OCC(=O)NC2CCS(=O)(=O)C2)C(C)C)c1 (stereo partly drawn)
-11%	Cc1ccc(SCC(=O)Nc2ccccc2N2CCOCC2)cc1
3%	COc1ccc(-c2nc(CC(=O)O)cs2)cc1
4%	Cc1ccc(S(=O)(=O)CCc2nnc(NC(=O)COc3cccc(C)c3)s2)cc1
-8%	O=C(Nc1cccnc1)c1ccc2c(c1)C(=O)N(CC1CCCO1)C2=O (stereo not drawn)
4%	CCCn1c2ccccc2c2cnn(CC(=O)NCCCOC(C)C)c(=O)c21
-16%	COc1ccc(C2NC(=S)NC(C)=C2C(=O)c2ccccc2)cc1OC (stereo not drawn)
3%	CCCSc1ncc(Cl)c(C(=O)Nc2ccc(OC)cc2OC)n1
5%	CCCCSc1nc2sc3c(c2c(=O)n1-c1ccccc1C)CC(C)(C)OC3
-21%	Cc1cc(C)c(OCC(=O)OCCNC(=O)c2cccnc2)c(C)c1
-16%	COCCn1nc2cc(C(=O)NCC34CC5CC(CC(C5)C3)C4)ccc2c1OC
-3%	CC(=O)c1cnc2c(-c3ccccc3)c(C)nn2c1C
-20%	Cc1ccc(S(=O)(=O)NC(=O)CSc2nc3ccccc3s2)cc1
-20%	CC1C(=O)NN=C1c1ccc([N+](=O)[O-])cc1 (stereo not drawn)
3.5µM*	O=C(O)/C=C/C(=O)c1ccc2c(c1)CCc1ccccc1-2
-2%	COc1ccc(NS(=O)(=O)c2cc3c(cc2C)N(C(C)=O)CCO3)cc1OC
-16%&6%	Cc1ccccc1-c1nc(CS(=O)(=O)CC(=O)NCCCN2CCN(C)CC2)c(C)o1
-7%	CCN(C(=O)c1cc2c(s1)-c1ccccc1OC2)c1cc(OC)ccc1OC
-15%	O=C(NCCc1csc(-c2ccccc2)n1)c1ccc(Br)o1
-11%	C[C@H](NC(=O)c1[nH]cnc1C(=O)Nc1ccccc1)C(=O)OC(C)(C)C
2%	COC(=O)Cc1ccc(NC(=S)NNC(=O)C2CC2)cc1
0%	CC(Oc1ccc(Br)cc1)C(=O)N1CCN(c2ccccn2)CC1 (stereo not drawn)
-11%	O=C1CCN(Cc2ccc(O)cc2)CCN1[C@H](CO)c1ccccc1
-12%&-1%	CCc1ccc(NC(=O)CC2C(=O)NCCN2C(=O)c2ccc(F)cc2)cc1 (stereo not drawn)
12%	CCCCCn1c(CN2CCN(Cc3ccccc3)CC2)nc2c1c(=O)n(C)c(=O)n2C
-8%	Cc1ccc(NC(=O)NC(=O)N(C(C)C)S(C)(=O)=O)nc1
1%	O=C(c1c[nH]c2ccc(S(=O)(=O)N3CCOCC3)cc2c1=O)N1CCN(c2ccccn2)CC1
-9%	COCCNC(=O)C(c1ccc(F)cc1)N(CCOC)C(=O)CCC(=O)Nc1ccccn1 (stereo not drawn)
10%	Cc1ccc(SCC(=O)O/N=C(\N)c2cccc([N+](=O)[O-])c2)cc1
3%	CCSc1nnc(-c2cc(Br)ccc2N)c(=O)[nH]1
5%	COc1ccc2c(c1)CC/C(=C\C=C\c1ccccc1OC)C2=O
-5%	C=CCn1c(C)cc(C(=O)COc2ccc(N(C)S(=O)(=O)c3ccc(NC(C)=O)cc3)cc2)c1C
-8%	CCN(CC)S(=O)(=O)c1ccc2c(c1)N(CC(=O)Nc1ccc(OC)cc1)C(=O)CS2
-23%	COc1ccccc1NC(=O)CCN1CCN(C)CC1
-6%	C/C(=N\OCc1ccc(C#N)cc1)c1cc2ccccc2o1
0%	COc1ccccc1C(=O)NC(=O)COc1ccc(Cl)cc1Cl
6%	CC1CCc2nc(NC(=O)C3CCCO3)sc2C1 (stereo not drawn)
-2%	O=C(O)C1C2CCC(C2)C1C(=O)Nc1ccc(Cl)c(Cl)c1 (stereo not drawn)
3%	C/C(=N\NC(=O)c1ccco1)c1ccc(NC(=O)c2ccccc2)cc1
4%	CC(C)CN(C(=O)CN(C)C(=O)c1ccco1)c1c(N)n(CC(C)C)c(=O)[nH]c1=O
4%	C=CC[C@H](CC(=O)NCCO)C(=O)N[C@H](C)COC(=O)[C@@H](CC=C)Cc1ccc(F)cc1
-10%	Cc1ccc(S(=O)(=O)c2cc(Nc3ccccc3)ccc2O)cc1
-5%	O=C(Cc1c(F)cccc1Cl)NNC(=O)c1ccccc1Cl
18%	CCn1cc(C(=O)N[C@@H](CCSC)C(=O)NCCOC)c(=O)c2cc3c(cc21)OCO3

Arranged by molar mass (rising): some entries from above
VDR inh	SMILES
-25%	CN1C(N)=NC(=O)/C1=C/c1ccc(F)cc1
-13%	C=C(C(=O)O)[C@@H]1CC[C@@]2(C)CCC[C@](C)(O)[C@@H]2C1
-12%	Cn1cnnc1SCC(=O)c1cccc([N+](=O)[O-])c1
3%	O=C(c1cccc(F)c1)N1CCCC(C(=O)N2CCCCC2)C1 (stereo not drawn)
5%	CCCCSc1nc2sc3c(c2c(=O)n1-c1ccccc1C)CC(C)(C)OC3
4%	CC(C)CN(C(=O)CN(C)C(=O)c1ccco1)c1c(N)n(CC(C)C)c(=O)[nH]c1=O
1%	CCN(C(=O)COC(=O)c1cc([N+](=O)[O-])ccc1N1CCOCC1)C1CCS(=O)(=O)C1 (stereo not drawn)

Remaining list, next part.
VDR inh	SMILES
3%	COC(=O)c1ccccc1NC(=O)C1(S(=O)(=O)c2ccc(Cl)cc2)CC1
14%	COc1ccc(C(=O)Nc2c(-c3ccccc3)nc3ccccn23)c(OC)c1
?	N#C/C(=C\c1ccc(O)c([N+](=O)[O-])c1)c1nc2ccccc2s1
-13%	CC(Sc1ccccc1)C(=O)Nc1ccc(S(=O)(=O)N2CCOCC2)cc1 (stereo not drawn)
-8%	CC(C)C(NS(=O)(=O)c1cccs1)C(=O)N1CCC(C(N)=O)CC1 (stereo not drawn)
-19%	COc1ccccc1C(=O)NNC(=O)C12CC3CC(CC(C3)C1)C2
4%	CC(=O)N1CC(C)Sc2ccc(S(=O)(=O)NCCc3ccccc3)cc21 (stereo not drawn)
-1%	CC(C)[C@H](NC(=O)Nc1ccccc1F)C(=O)O
2%	COc1ccc(CN(C(=O)c2ccccc2F)C2CCS(=O)(=O)C2)cc1 (stereo not drawn)
